Compound activity: PubChem, several laboratories
FGF22 binding = binders of recombinant human FGF22 by thermal shift | calls only at 9.99 µM | SYPRO orange fluorescence; percent of sucrose octasulfate shift, DMSO zero | Q9HCT0 | 340,000 tested, 1.5% active;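 active = melting point raised past a set limit in the mean and every replicate; three in four hits are not shown here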
Target sequence (Q9HCT0 whole entry, looked up): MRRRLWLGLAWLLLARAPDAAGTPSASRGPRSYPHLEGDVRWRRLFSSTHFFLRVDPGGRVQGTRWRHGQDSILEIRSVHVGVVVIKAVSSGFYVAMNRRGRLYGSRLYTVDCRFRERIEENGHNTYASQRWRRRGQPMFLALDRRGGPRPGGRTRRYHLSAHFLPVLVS
UCH37 DUB inh = blocks the human deubiquitinase UCH37; purified proteasome/UCH37, Ub-AMC cleavage fluorescence; Q9Y5K5; inhibition, % (concentration not given with the values); AID 588478; 330,000 tested, 0.33% active;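 active = mean of two replicates above 20%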;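 note: 0% = compound-free wells with enzyme and 100% = wells lacking proteasome; stock transfer was 100 nL into about 20 µL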
Target sequence (Q9Y5K5 whole entry, looked up): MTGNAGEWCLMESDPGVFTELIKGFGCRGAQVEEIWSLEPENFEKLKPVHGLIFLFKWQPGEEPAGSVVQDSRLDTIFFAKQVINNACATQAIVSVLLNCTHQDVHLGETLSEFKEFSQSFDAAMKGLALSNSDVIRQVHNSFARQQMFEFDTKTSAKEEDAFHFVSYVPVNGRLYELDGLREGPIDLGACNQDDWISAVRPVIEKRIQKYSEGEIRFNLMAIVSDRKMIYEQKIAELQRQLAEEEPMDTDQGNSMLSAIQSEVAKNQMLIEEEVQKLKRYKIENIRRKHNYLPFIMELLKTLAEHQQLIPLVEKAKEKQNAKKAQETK
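Signal – fluorescence, ex 355 nm, em 460 nm · System – Proteasome-bound UCH37 · Input – 0.15 nM proteasome as dispensed · Timing – 30 min preincubation with enzyme, 25 min cleavage at room temperature · Read-out basis – percent inhibition of cleavage signal versus uninhibited and no-proteasome wells · Medium – Tris-HCl pH 7.4 with ATP-MgCl2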
Ecoli growth = E. coli growth inhibition | Escherichia coli growth, OD600, 23 h; active compounds read low | OD600 absorbance (concentration not given with the values) | 330,000 tested, 0.21% active;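 active = OD600 absorbance below the run mean of sample wells minus 3.6 SD, in any replicate, cut at about 0.56 in these data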;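 note: stock transfer was 300 nL into about 60 µL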
rRNA inh HTS = inhibitors of bacterial rRNA selective over humanized ribosomes. E. coli WT GFP vs humanized-ribosome RFP mutants, fluorescence, 24 h; active compounds read low; DMSO median 0, no signal -100. GFP signal change (wild-type ribosome), % (test concentration not listed). 350,000 tested, 1.6% active. AID 720706;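 active = significant combined selectivity score with lowered wild-type GFP, culture density cut under 30%, mutant RFP and density less affected; inactive = any of these conditions unmet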; note: one replicate is shown; some compounds called inactive have numbers as strong as hits
HNF4A DNA FP = change in binding of human HNF4 alpha to DNA. activity change, % at 10 µM. 360,000 tested, 0.3% active. HNF4a-FITC DNA binding, fluorescence polarization, 1 h. P41235; in the data active = activity change above about 30%, passing the limit was not always enough;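 note: controls were the assay level and a saturating level of protein; the project sought stronger binding though the title names inhibitors; some compounds called inactive have numbers as strong as hits; positive values seem to mean higher polarization but the record does not say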
B2AR ag = agonists of human beta-2 adrenergic receptor inducing internalization. Am2.2-beta2AR cells, FAP receptor internalization, flow cytometry; reference of the scale not given here. response, % (concentration not given with the values). 340,000 tested, 0.43% active. AID 504454;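 active = response above a set limit, near 3 SD of response in nonfluorescent compounds, cut at about 42% in these data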;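 note: stock transfer was 100 nL into about 11 µL; a reference agonist was the positive control; negative values mostly stem from fluorescent compounds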
Target sequence (P07550 whole entry, looked up): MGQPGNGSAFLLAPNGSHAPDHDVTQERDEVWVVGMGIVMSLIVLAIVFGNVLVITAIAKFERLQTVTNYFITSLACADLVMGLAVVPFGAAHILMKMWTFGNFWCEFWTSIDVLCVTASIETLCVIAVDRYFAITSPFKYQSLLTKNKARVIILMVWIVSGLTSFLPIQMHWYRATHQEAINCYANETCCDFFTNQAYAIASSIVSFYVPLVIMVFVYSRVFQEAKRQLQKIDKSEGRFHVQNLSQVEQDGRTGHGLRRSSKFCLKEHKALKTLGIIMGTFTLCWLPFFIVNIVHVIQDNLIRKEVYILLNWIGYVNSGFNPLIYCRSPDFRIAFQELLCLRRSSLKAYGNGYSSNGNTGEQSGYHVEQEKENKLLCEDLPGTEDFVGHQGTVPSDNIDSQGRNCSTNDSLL
ALR inh = blocks human ALR sulfhydryl oxidase activity; P55789; inhibition, % (concentration not given with the values); 290,000 tested, 3.8% active; purified ALR, DTT oxidation, H2O2 HRP-luminol luminescence; AID 485317;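 active = mean and each replicate at 75% or more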;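 note: stock transfer was 7.5 nL into about 7.5 µL; 0% = neutral wells and 100% = wells with inactivated enzyme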
rRNA inh HTS OD600 = recorded beside rRNA inh HTS, whose call it bears; OD600 change, %; measured here: OD600 growth;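 optical density of the mix in the first replicate; 0 = DMSO median and -100 = no signal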
rRNA inh HTS RFP = recorded beside rRNA inh HTS, whose call it bears; RFP signal change, %; measured here: RFP humanized mutant strains;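 first replicate; 0 = DMSO median and -100 = no signal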
An asterisk follows results filed as active; i = inactive; nt = no result given; & = joins results of further samples. Some of the compounds tested, so the mix of outcomes need not match the whole.

nr | structure | rRNA inh HTS | ALR inh | Ecoli growth | B2AR ag | HNF4A DNA FP | FGF22 binding | UCH37 DUB inh | rRNA inh HTS OD600 | rRNA inh HTS RFP
1 | COc1ccc([C@@H]2[C@@H]3C(=O)N(C(C)(C)C)C(=O)[C@@H]3[C@]3(CC(C)C)C(=O)N(c4ccc(C(F)(F)F)cc4)C(=O)N23)cc1 | -6 | -5 | nt | 4 | 0.5 | i | -0.7 | -5 | -1.6
2 | O=S(=O)(Cc1ccccc1)N1CCCC1 | nt | -5 | 0.72 | 0 | -1.4 | nt | 5.6 | nt | nt
3 | O=C(Cc1ccccc1)Nc1ccc(CN2CCOCC2)cc1 | nt | 0 | 0.7 | 9 | -2.5 | nt | 3.6 | nt | nt
4 | Cc1ccc(CNc2ncnc(N)c2[N+](=O)[O-])cc1 | 15 | -2 | 0.69 | -6 | -3.8 | nt | 2.7 | 16 | 2.8
5 | COC(=O)Nc1ccc(S(=O)(=O)NNC(=O)c2c(O)c3ccccc3[nH]c2=O)cc1 | 7 | nt | 0.69 | -1 | 1.5 | i | -5.1 | 12 | -4.9
6 | CC(C)N1C(=O)CCC1C(=O)NCc1cccs1 (stereo unspecified) | 9 | 3 | 0.72 | 0 | 1.8 | i | 0.7 | 5 | 1.5
7 | O=C(Nc1nc(-c2ccccc2)cs1)c1ccco1 | -36 | nt | 0.65 | -7 | -2.8 | i | 1.9 | -49 | -8.3
8 | CCOC(=O)C1(CC2CCCCO2)CCN(C(=O)Nc2ccc(C(=O)OC)cc2)CC1 (stereo unspecified) | -19* | nt | 0.69 | 1 | -1.0 | i | 1.4 | -2.2* | 1.8*
9 | CNS(=O)(=O)c1cccc(C(=O)OCC(=O)c2cc(C)n(-c3ccc4c(c3)OCO4)c2C)c1 | nt | -28 | 0.72 | 17 | 1.2 | nt | 1.6 | nt | nt
10 | CCCCNc1ccc(C(=O)Nc2cccc(C)n2)cc1[N+](=O)[O-] | nt | -2 | 0.65 | -3 | 4.5 | nt | 0.6 | nt | nt
11 | O=C(c1ccc(F)cc1)N1CCN(Cc2ccccc2)CC1 | 3 | 18 | 0.66 | 3 | -0.6 | i | 2.8 | 10 | 0.4
12 | CCC(=O)Nc1cccc(Oc2nc(C)cc(C)c2C#N)c1 | -3 | nt | 0.71 | -1 | 1.1 | i | 3.8 | -10 | -2.0

Whole records, looked up by structure. Values in the order: rRNA inh HTS, ALR inh, Ecoli growth, B2AR ag, HNF4A DNA FP, FGF22 binding, UCH37 DUB inh, rRNA inh HTS OD600, rRNA inh HTS RFP
Entry for `CC(C)N1C(=O)CCC1C(=O)NCc1cccs1` (stereo unspecified) : 9, 3, 0.72, 0, 1.8, i, 0.7, 5, 1.5
Entry for `COC(=O)Nc1ccc(S(=O)(=O)NNC(=O)c2c(O)c3ccccc3[nH]c2=O)cc1` : 7, nt, 0.69, -1, 1.5, i, -5.1, 12, -4.9
Entry for `CCOC(=O)C1(CC2CCCCO2)CCN(C(=O)Nc2ccc(C(=O)OC)cc2)CC1` (stereo unspecified) : -19*, nt, 0.69, 1, -1.0, i, 1.4, -2.2*, 1.8*
Entry for `O=C(Cc1ccccc1)Nc1ccc(CN2CCOCC2)cc1` : nt, 0, 0.7, 9, -2.5, nt, 3.6, nt, nt
Entry for `CNS(=O)(=O)c1cccc(C(=O)OCC(=O)c2cc(C)n(-c3ccc4c(c3)OCO4)c2C)c1` : nt, -28, 0.72, 17, 1.2, nt, 1.6, nt, nt

(next part)
nr | structure | rRNA inh HTS | ALR inh | Ecoli growth | B2AR ag | HNF4A DNA FP | FGF22 binding | UCH37 DUB inh | rRNA inh HTS OD600 | rRNA inh HTS RFP
13 | CCOC(=O)c1cnn(-c2sc(C(=O)OCC)c(C)c2C(=O)OCC)c1N | -1 | -1 | 0.66 | 13 | 5.9 | i | -6.3 | 1 | -1.2
14 | O=C(CCC1CCCN(C(=O)C2=CCCCC2)C1)N1CCN(c2ccccn2)CC1 (stereo unspecified) | -11 | -10 | 0.67 | -5 | -1.2 | i | 6.4 | -11 | -3.0
15 | Cc1c(C(=O)Nc2ccc(S(=O)(=O)N3CCOCC3)cc2)cccc1[N+](=O)[O-] | -5 | -2 | 0.7 | 1 | 0.3 | i | 0.8 | 4 | 1.2
16 | CCCOC(=O)c1ccc(Oc2cn[nH]c2-c2ccc(OCC(=O)NN)cc2O)cc1 | 2 | 0 | 0.66 | 2 | 0.9 | i | 0.9 | -11 | -0.9
17 | Cc1ccc(C(=O)C(C)OC(=O)Cc2n[nH]c(=O)c3ccccc23)cc1C (stereo unspecified) | -7 | 37 | 0.7 | 4 | 3.0 | i | 2.1 | -4 | 1.1
18 | CCOc1ccc(S(=O)(=O)N(C)c2ccc(OCC(=O)NCc3ccc(C(=O)OC)cc3)cc2)cc1 | -5 | -3 | 0.71 | -1 | -4.7 | i | 2.5 | -9 | 9.1
19 | CC(=O)Nc1ccc(C(=O)N/N=C/c2ccc(F)cc2)cc1 | 11 | -3 | nt | -7 | -2.8 | i | nt | 13 | 2.5
20 | O=C1C=CC(=O)N1c1ccc2c(c1)C(NC(=O)C(F)(F)F)c1ccccc1-2 (stereo unspecified) | 11 | nt | 0.65 | 22 | 4.5 | i | 1.5 | 19 | 4.6
21 | Cc1ccc(S(=O)(=O)Nc2cc(Cl)c(O)cc2C)cc1 | nt | nt | 0.67 | -5 | 5.5 | nt | -1.4 | nt | nt
22 | CC(C)CC(=O)Nc1cccc(-c2csc(-c3ccccc3)n2)c1 | nt | 4 | 0.77 | -6 | -3.1 | nt | 3.2 | nt | nt
23 | CCOC(=O)c1cc(OC(=O)c2cccs2)n(-c2ccccc2)n1 | -18* | 38 | 0.6 | -8 | 1.3 | i | 1.2 | -5.8* | 2.5*
24 | Cc1ccc(-c2nnn(CC(=O)NCCC3=CCCCC3)n2)cc1 | nt | -4 | 0.75 | -3 | -4.1 | nt | 0.3 | nt | nt

2 records drawn at random from the list so far, as already listed:
nr | structure | rRNA inh HTS | ALR inh | Ecoli growth | B2AR ag | HNF4A DNA FP | FGF22 binding | UCH37 DUB inh | rRNA inh HTS OD600 | rRNA inh HTS RFP
1 | COc1ccc([C@@H]2[C@@H]3C(=O)N(C(C)(C)C)C(=O)[C@@H]3[C@]3(CC(C)C)C(=O)N(c4ccc(C(F)(F)F)cc4)C(=O)N23)cc1 | -6 | -5 | nt | 4 | 0.5 | i | -0.7 | -5 | -1.6
14 | O=C(CCC1CCCN(C(=O)C2=CCCCC2)C1)N1CCN(c2ccccn2)CC1 (stereo unspecified) | -11 | -10 | 0.67 | -5 | -1.2 | i | 6.4 | -11 | -3.0

(listing goes on)
nr | structure | rRNA inh HTS | ALR inh | Ecoli growth | B2AR ag | HNF4A DNA FP | FGF22 binding | UCH37 DUB inh | rRNA inh HTS OD600 | rRNA inh HTS RFP
25 | COc1ccc(CCNC(=O)c2ccc(Cl)nc2)cc1 | -1 | -1 | 0.68 | -7 | -2.5 | i | 0.0 | 4 | -0.7
26 | CCOc1cc(N2CCOCC2)c(OCC)cc1NC(=O)COc1ncnc2ccc(Br)cc12 | nt | -37 | 0.71 | 10 | -1.6 | nt | 2.0 | nt | nt
27 | COc1ccccc1CN(C)C[C@H]1OCc2cnnn2CCCC(=O)N([C@@H](C)CO)C[C@@H]1C | 10&0 | nt | nt | nt | -6.8 | i | nt | 6&0 | -0.4&-0.2
28 | COc1ccc2[nH]c(=O)c(CN(Cc3cccs3)C(=S)Nc3cccc(C)c3)cc2c1 | nt | -9 | 0.76 | 11 | -1.3 | i | -4.2 | nt | nt
29 | Cc1cc(NC(=O)c2cc([N+](=O)[O-])ccc2Cl)no1 | nt | 1 | 0.65 | -4 | -2.7 | i | 1.5 | nt | nt
30 | Cc1nnc(SCC(=O)Nc2ccc3c(c2)OCO3)n(N)c1=O | 5 | 94* | 0.74 | 0 | -0.7 | i | 1.0 | -2 | -0.7
31 | Cc1cccc(/C=C/c2onc(C)c2[N+](=O)[O-])n1 | -49 | -5 | 0.66 | 15 | nt | i | 5.7 | -58 | -8.8
32 | N#C/C(=C\c1cccn1S(=O)(=O)c1cccc([N+](=O)[O-])c1)S(=O)(=O)c1ccc(F)cc1 | -2 | nt | nt | nt | 4.6 | i | nt | 0 | 24
33 | Cc1cc(NC(=S)N(Cc2ccc(Br)cc2)Cc2ccc(C(=O)O)cc2)ccc1Cl | -43 | 6 | 0.65 | 12 | -0.8 | nt | 4.3 | -50 | -3.1
34 | CCCCN1C[C@H](Cc2ccccc2)[C@@H](CC(=O)NC)C1=O | 4 | nt | nt | nt | -6.4 | i | nt | 11 | -2.7
35 | O=C(Nc1nc(N2C(=O)c3ccccc3C2=O)n(-c2ccccc2)n1)c1ccccc1 | nt | 1 | 0.67 | 3 | 3.2 | nt | 2.2 | nt | nt
36 | CC(C)NS(=O)(=O)c1ccc(OCC(=O)NCc2cccnc2)cc1 | 19 | -2 | 0.67 | 7 | 1.1 | i | 2.7 | 3 | 1.1

Other compounds follow.
nr | structure | rRNA inh HTS | ALR inh | Ecoli growth | B2AR ag | HNF4A DNA FP | FGF22 binding | UCH37 DUB inh | rRNA inh HTS OD600 | rRNA inh HTS RFP
37 | Cc1ccc(NC(=O)CSc2nc(O)cc(=O)n2-c2ccc(C)cc2)cc1 | 3 | 100* | 0.71 | -8 | 2.7 | i | 2.3 | 9 | -0.9
38 | CC(C)Sc1nc2ccc(N3C(=O)C4CCCCC4C3=O)cc2s1 (stereo unspecified) | nt | -2 | 0.72 | 0 | -1.4 | i | 0.9 | nt | nt
39 | CC(C)=C1C(=O)NN(c2cccc(Cl)c2)C1=O | -12 | 38 | 0.71 | -11 | 1.1 | i | -0.7 | -11 | 2.2
40 | O=C(CCn1nnc2ccccc21)Nc1nnc(Cc2ccccc2)s1 | nt | -6 | 0.68 | 8 | 2.8 | nt | 1.4 | nt | nt
41 | Cc1cc(C2C(=O)c3ccccc3C2=O)c(C)c(C)c1C | -11 | 24 | 0.66 | 2 | -1.8 | i | 5.8 | -12 | -4.3
42 | N#Cc1ccc(S(=O)(=O)N2CCCN(c3ccc(C(F)(F)F)cn3)CC2)cc1 | -13 | -9 | 0.64 | -17 | -0.3 | i | 0.3 | -13 | -2.2
43 | CCCn1c(=N)c(C#N)cc2c(=O)n3cccc(C)c3nc21 | nt | 7 | 0.73 | nt | nt | nt | -147 | nt | nt

Some values from the results shown:
#40 – ALR inh: -6
#37 – ALR inh: 100*
